CSC inhib: cancer stem cell viability inhibitors, primary screen, luminescence | AID 2717, 2010 | cancer stem cell-like cells viability | hit rate 1.1% among 300,000 | inhibition, % at 7.5 µM;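 active means mean at 75% or more and at least half the replicates too; inconclusive means mean and replicates disagree; tested in HMLE shEcad cells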;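 further: 0% = median of negative and 100% = median of positive control wells; the first replicate is given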
Yeast UUG start: modulators of yeast start codon fidelity, primary screen, whole organism, S. cerevisiae, single point, plate reader; S. cerevisiae UUG-firefly luciferase reporter, luminescence/redox ratio; activity score, % at 18.7 µM; hit rate 0.13% among 350,000; AID 602363, 2012;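 active means replicate mean at a twofold rise or more, about +100% in these data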;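 further: firefly luciferase made from a UUG start codon reports start codon fidelity; reporter light over untreated wells divided by growth signal over untreated wells; some hits fall short of that in this replicate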
PABP polyA inh: PABP poly(A) RNA binding inhibitors, primary screen, biochemical, fluorescence polarization, uHTS; hit rate 1% among 290,000; inhibition, % at 35 µM; AID 2014, 2009; Polyadenylate-binding protein 1 (Homo sapiens), P11940;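 active means 50% or more with normal probe brightness, or confirmed in later tests; inconclusive means above 50% with abnormal brightness, or retests that disagree; inactive means below 50% or failed in later tests; about a fifth of its hits are not listed in these tables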;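 further: calls also rest on retests at 20 µM and on dose response follow-up; controls were probe without protein and protein plus probe with vehicle; some compounds called inactive have numbers as strong as hits; many hits fall short of the cut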
Target sequence (P11940 whole entry, looked up): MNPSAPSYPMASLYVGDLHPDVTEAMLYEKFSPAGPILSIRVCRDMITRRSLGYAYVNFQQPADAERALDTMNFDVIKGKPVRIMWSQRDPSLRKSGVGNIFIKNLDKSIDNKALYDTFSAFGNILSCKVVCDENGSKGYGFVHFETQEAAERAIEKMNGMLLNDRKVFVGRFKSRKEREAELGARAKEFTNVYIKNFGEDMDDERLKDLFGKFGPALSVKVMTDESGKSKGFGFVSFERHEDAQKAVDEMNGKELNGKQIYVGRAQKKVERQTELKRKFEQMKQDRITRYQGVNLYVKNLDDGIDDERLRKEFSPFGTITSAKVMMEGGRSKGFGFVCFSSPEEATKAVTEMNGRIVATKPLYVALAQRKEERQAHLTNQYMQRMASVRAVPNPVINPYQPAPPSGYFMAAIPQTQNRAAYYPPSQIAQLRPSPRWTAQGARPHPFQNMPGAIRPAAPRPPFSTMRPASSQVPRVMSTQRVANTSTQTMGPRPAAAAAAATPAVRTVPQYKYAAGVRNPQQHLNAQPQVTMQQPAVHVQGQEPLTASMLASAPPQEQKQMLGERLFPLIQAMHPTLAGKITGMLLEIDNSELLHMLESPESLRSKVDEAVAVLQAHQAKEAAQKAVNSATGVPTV
Rce1 inhib: yeast Rce1p protease inhibitors, primary screen, biochemical, fluorescence, cell-free homogeneous; CAAX prenyl protease 2 (Saccharomyces cerevisiae (strain ATCC 204508 / S288c)), Q03530; yeast membranes, quenched prenylated peptide cleavage fluorescence; calls only; hit rate 0.27% among 290,000;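 active means fall in fluorescence gain of 50% or more versus controls, with final raw signal at or below 3038400; inconclusive means same 50% fall but final raw signal above 3038400; inactive means fall in fluorescence gain under 50%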;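 further: plate controls were neutral control wells for no effect and wells lacking membranes for full effect; tested at 10 µM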
eIF4H FP inh: human eIF4H binding inhibitors, primary screen, translation initiation inhibitor project, biochemical, uHTS, fluorescence polarization | eIF4H fluorescence polarization binding assay | AID 2012, 2009 | inhibition, % at 35 µM | hit rate 0.94% among 290,000;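 active means 50% or more with normal probe brightness, or confirmed in later tests; inconclusive means above 50% with abnormal brightness, or retests that disagree; inactive means below 50% or failed in later tests; about a fifth of its hits are not listed in these tables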;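 further: calls also rest on retests at 20 µM and on dose response follow-up; 0% = protein and probe with vehicle and 100% = probe without protein; strong numbers were not always called active; many hits fall short of the cut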
MT1-MMP act inh: blockers of MT1-MMP proenzyme processing, primary screen, HT1080 RFP-PRO-GFP cells, GFP/RFP fluorescence | Matrix metalloproteinase-14 (Homo sapiens), P50281 | hit rate 0.061% among 360,000 | GFP/RFP ratio change, % at 20 µM | GFP/RFP ratio fluorescence, overnight; percent of plate control window, DMSO zero;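 active means GFP/RFP ratio change of at least 30% with cell ATP level not reduced by more than half and red fluorescence within 50% of control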; further: strong numbers were not always called active
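Assay system: HT1080 cells carrying an RFP-PRO-GFP reporter | Dosing: Single dose of 20 µM compound, 1% DMSO final | Incubation: Cells overnight before dosing, compound overnight, 37 °C, 5% CO2 | Evaluation: GFP/RFP fluorescence ratio | Control set: DMSO and RFP-L50D-GFP cell wells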
HIV Env fusion: inhibitors of HIV-1 Env-driven cell-cell fusion, primary screen, HeLa-JRFL effector, CEM21 target cells, luciferase | inhibition, % at 12.3 µM | hit rate 1.1% among 360,000;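 active means mean replicate inhibition score of at least 50 and every replicate individually at or above 50; inconclusive means only one of the two criteria met; inactive means mean below 50 and not all replicates reaching 50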;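 further: 0% = plate neutral controls and 100% = maraviroc near 300 nM; one replicate is shown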
eIF4H FP inh retest: recorded beside eIF4H FP inh, whose call it bears; inhibition, %; compound at 20 µM; confirmation average;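 mean of two retest wells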
PABP polyA inh retest: also measured in PABP polyA inh; calls as there; inhibition, %; compound at 20 µM; confirmation repeats;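 mean of two retest wells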
MT1-MMP act inh RFP: further read-out of MT1-MMP act inh, marked with its call; RFP signal change, %; measured here: RFP expression control read;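 0 = vehicle wells; hits needed this value within 50% of zero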
Starred values were filed as active, the others as inactive; i = inactive; ? = inconclusive; · = not tested or not shown.

SMILES	CSC inhib	Yeast UUG start	PABP polyA inh	Rce1 inhib	eIF4H FP inh	MT1-MMP act inh	MT1-MMP act inh RFP	HIV Env fusion	others
Cc1ccccc1C(=O)NN1CC(C(=O)OCc2ccc(Cl)c(Cl)c2)CC1=O (stereo not given)	1	-12	2	i	-14	3	8	-22
O=C(CSc1nnnn1-c1cccc2c1CCCC2)N1CCCC1	-8	-2	5	i	0	-1	-6	-4
CCn1ccnc1CNC(=O)CC1C(=O)NCCN1Cc1ccc(F)cc1Cl (stereo not given)	16	·	18	i	16	5	7	-4
O=C(CN1CCN(Cc2ccc3c(c2)OCO3)CC1)Nc1ccc2[nH]c(=O)[nH]c2c1	2	-28	·	·	·	1	7	5
COc1ccc(C(=O)NC2CCCc3c2cnn3-c2cccc(C)c2C)c(OC)n1 (stereo not given)	46	-15	1	i	-5	1	-28	33
CN(C)CCNC(=O)c1ccccc1	9	-26	4	i	-4	6	5	-7
Cc1ccc(C(=O)NC(NC(=O)c2ccc(C)cc2)C(Cl)Cl)cc1	-8	-20	4	i	-9	-1	-16	·
O=C(Nc1nncs1)c1cccnc1Cl	-11	-9	12	i	-10	-4	1	·
O=C(c1cc(Cl)cc(Cl)c1)N1CCC(=O)N(C(COCc2ccccc2)Cc2ccccc2)CC1 (stereo not given)	24	0	3	i	-1	-6	-11	26
CCNc1cc(=O)n(C)c(=O)n1C	-8	-9	0	i	4	0	0	·
CNc1nc(-c2ccc3c(c2)CCN3S(=O)(=O)c2ccccc2)c(C)s1	-1	-12	-3	i	-4	3	-6	24
COc1cc2nc(Nc3cccc(F)c3)nc(N)c2cc1OC	-5	-22	-15	i	-12	16	3	-7
COC(=O)c1ccccc1NC(=O)COC(=O)c1ccc(C)c(NC(=O)c2ccco2)c1	0	-13	3	i	-4	-3	-9	-19
Cc1cc(NC(=O)/C=C/c2ccccc2Cl)n(-c2nc3ccccc3[nH]2)n1	37	·	-6	i	14	5	-10	-91
CC1CCCC(NC(=O)CCNC(=O)c2ccccc2Cl)C1C (stereo not given)	27	·	·	i	·	2	3	·
COc1ccc2[nH]c(=O)c(-c3noc(-c4ccccc4)n3)cc2c1	·	-23	-10	i	-3	-2	1	·
CC1=CS(=O)(=O)CC1SC(=S)N(C)C1CCS(=O)(=O)C1 (stereo not given)	-10	·	-2	i	-2	-7	0	4
Cc1cc(C(=O)OCC(=O)NC2CCC(C)CC2)c(C)o1 (stereo not given)	-19	7	·	·	·	2	1	·
Cc1ccc(C(=O)CSc2nnc(COc3cccc(C)c3)o2)cc1	-2	-2	-4	i	-6	4	-1	18
COc1ccccc1C(=O)NC(CCSC)C(=O)NCCCn1nc(C)cc1C (stereo not given)	-5	·	·	i	·	1	0	-3
CC1(C)CC2CC(C)(CN2C(=O)COC(=O)Cn2[nH]c(=O)c3ccccc3c2=O)C1 (stereo not given)	-15	·	7	i	-6	5	7	-56
CC(=O)c1c(C)[nH]c(C(=O)OCC(=O)NCCCc2ccccc2)c1C	-9	-26	·	·	·	8	-4	6
CSCCC(N=C1NS(=O)(=O)c2ccccc21)C(=O)NCc1ccccc1F (stereo not given)	-7	-4	-10	i	-13	0	3	-39
N#Cc1nc(Cc2ccccc2)oc1N1CCC(C(N)=O)CC1	2	-18	-6	i	-17	0	-3	·
O=C(Nc1ccc2nn(-c3ccccc3)nc2c1)c1ccc2c(c1)OCO2	6	-11	-10	i	4	-1	-4	-9
O=C(O)c1ccc2c(=O)n3cc(C(=O)c4ccccc4O)cc(Cl)c3nc2c1	10	-21	48	i	32	-8	-20	4
C=CCOc1ccc(/C=C2\SC(=Nc3cccnc3)NC2=O)cc1	23	-11	?	i	?	-23	1	18
CC(C)COc1cc(=O)[nH]c(SCC(C)C)n1	12	-15	2	i	-5	2	-2	6
Cc1ccc(C(=O)Oc2coc(CSc3nnc(NC(=O)c4cccs4)s3)cc2=O)cc1C	57	·	-2.3*	i	66*	2	8	·	eIF4H FP inh retest=86*;PABP polyA inh retest=88*
Cc1ccc(NC(=O)Nc2ccc3c(c2)CCC3)c(C)c1	3	-5	-4	i	-1	-1	2	0
Cc1ccc(-c2ccc(C3C(C#N)=C(N)Oc4n[nH]c(C)c43)o2)cc1 (stereo not given)	14	-25	76*	i	54*	-9	-2	-300	eIF4H FP inh retest=72*;PABP polyA inh retest=82*
O=C(NC(=S)Nc1ccc2c(c1)OCCO2)c1ccccc1F	·	-27	-4	i	2	-7	-3	-116
Cc1nnc(N2C(=O)C(=O)/C(=C(/O)c3ccc4c(c3)OCCO4)C2c2ccc([N+](=O)[O-])cc2)s1 (stereo not given)	-3	-1	5	i	-8	-5	0	-3
COc1ccc(C2N(C(=O)N(C)C)CCN2S(=O)(=O)c2ccc(OC)cc2)cc1 (stereo not given)	-1	-6	9	·	6	4	6	-10
CCCN(C(=O)Cn1nc(C)c([N+](=O)[O-])c1C)c1c(N)n(Cc2ccccc2)c(=O)[nH]c1=O	-9	-17	·	i	·	-1	-1	-6
COc1ccc(OC)c(/C=N/N=C(\N)c2nonc2N)c1	9	-15	-2	i	-2	6	4	-93
CCN(CC(=O)Nc1ccc2c(c1)OCCO2)C(=O)/C=C/c1cccc(Br)c1	33	-18	·	i	·	-2	-3	-33
O=C(CCC(=O)N(CC(=O)NC1CCCCC1)CC1CCCO1)Nc1nccs1 (stereo not given)	2	·	5	i	-6	-3	2	0
Cn1cccc1C(=O)OCC(=O)NCc1cccs1	-12	-5	·	·	·	1	-2	10
CCN(CC)c1ncnc2sc(C(=O)N3CCN(c4ccc(OC)cc4)CC3)c(C)c12	-1	-1	-4	i	-8	-5	-4	·
O=c1c2ccccc2cnn1-c1ccc(Br)cc1	-7	·	-1	i	-4	-4	-3	·
CCC(=O)c1cc(Br)ccc1OCC(=O)N1CCN(S(=O)(=O)c2ccccc2)CC1	·	-39	·	·	·	-1	-1	15
CCCCNC(=O)c1onc(CSc2cccc(F)c2)c1C(=O)O	-13	-12	5	i	-2	1	2	1
CN1CCC(NC(=O)c2cc(-c3cccc(Br)c3)nc3ccccc23)CC1	18	-7	2	i	-4	-3	-1	-2
Cc1ccc(N2C(=O)[C@@H]3C(c4cccnc4)=NO[C@@H]3C2=O)c(C)c1	-14	·	-11	i	11	-1	3	1
OCC[C@@H]1C[C@H](O)[C@@H](O)[C@]2(OCc3cc(Cl)ccc32)O1	·	11	·	·	·	1	5	57
Cn1nccc1C(=O)NC1CCN(Cc2ccccc2)CC1	-19	-18	-4	i	-4	2	2	0
CCOc1cccc(C2C(C(=O)c3cccs3)=C(O)C(=O)N2Cc2cccnc2)c1 (stereo not given)	-10	-7	8	i	4	·	·	-3
CCOC(=O)N1CCN(c2c(NCCc3ccccc3)c(=O)c2=O)CC1	4	-21	-1	i	-5	3	5	13
CN(CC(=O)Nc1c(Cl)cccc1Cl)C(=O)c1cccc(S(=O)(=O)NCc2ccccc2)c1	·	-12	·	i	·	1	-4	-3
COC(=O)c1nc2cc(C)ccn2c1F	-7	-3	-8	i	-7	2	4	-3
Cc1cc(C)n2c(SCC(=O)Nc3cc(S(=O)(=O)N(C)C)ccc3C)nnc2n1	-5	-9	·	·	·	1	1	·
COc1ccccc1NC(=O)CN(Cc1ccccc1)S(C)(=O)=O	1	-6	-8	i	-6	2	-1	-26
O=C(CSc1nnc(-c2ccccn2)o1)Nc1ccccc1	1	·	-7	i	-12	-2	-2	-8
Cc1cccn2c(=O)c3cc(C(=O)NCCN4CCOCC4)c(=N)n(CCc4ccccc4)c3nc12	3	-4	13	i	6	1	-1	·
CC(=O)N1CCc2cc(S(=O)(=O)NCCC(=O)Nc3cccc(C)c3)ccc21	-13	-18	2	i	-2	3	0	·
CCO[C@@H]1OC(C(=O)N2CCCCCCC2)=C[C@H](c2ccc3c(c2)OCO3)[C@H]1CCCO	-14	15	-4	i	2	-1	-1	-1
CCOC(=O)c1cc(-c2cccc(C(F)(F)F)c2)nc2nc(SC)[nH]c(=O)c12	3	·	-11	i	4	1	2	-25
CSC1=NSC2=NC(=O)/C(=C\c3coc4ccccc4c3=O)C(=N)N12	6	·	-4	·	49	-62	7	-25
Nc1nc(COc2ccc(F)cc2Cl)nc(N2CCCCC2)n1	-8	·	7	i	7	-1	0	4

2 neighbouring compounds out of the list so far, for reference:
SMILES	CSC inhib	Yeast UUG start	PABP polyA inh	Rce1 inhib	eIF4H FP inh	MT1-MMP act inh	MT1-MMP act inh RFP	HIV Env fusion	others
O=C(CSc1nnc(-c2ccccn2)o1)Nc1ccccc1	1	·	-7	i	-12	-2	-2	-8
Cc1cccn2c(=O)c3cc(C(=O)NCCN4CCOCC4)c(=N)n(CCc4ccccc4)c3nc12	3	-4	13	i	6	1	-1	·

Further entries.
SMILES	CSC inhib	Yeast UUG start	PABP polyA inh	Rce1 inhib	eIF4H FP inh	MT1-MMP act inh	MT1-MMP act inh RFP	HIV Env fusion	others
CCOc1ccccc1NC(=O)Cn1cnc2c(nnn2-c2cccc(OC)c2)c1=O	-13	-5	-12	i	-2	-4	0	26
CC(=O)C1=NN(c2ccccc2)C(c2cccs2)N1c1ccccc1 (stereo not given)	6	·	-6	i	0	·	·	·
COC(C[C@@H]1O[C@H]1[C@@H](O)[C@@H](C)OCc1ccccc1)OC	·	-21	-5	i	3	2	3	-15
CCOC(=O)N1C2=NC(C(=O)OC)=C(C(=O)OC)[C@@H]3N(C)c4ccccc4[C@]23C[C@H]1C(=O)OC	8	4	-1	i	5	0	1	-21
CC(C)N(CCCNC(=O)C1CCN(S(=O)(=O)N2CCOCC2)CC1)Cc1ccccc1	-4	-9	-1	i	-7	0	-2	·
Cc1cc(-c2ccccc2)n(-c2cc(N/N=C/c3ccccc3O)ncn2)n1	105*	-4	-2	·	9	8	-16	6
COCCCn1c(SCC(=O)NNC(=O)c2cccc(O)c2)nnc1-c1ccncc1	-6	·	-7	i	3	1	4	-2
COC(=O)CNC(c1ccccc1)c1cc(Br)ccc1NS(=O)(=O)c1ccc(C)cc1 (stereo not given)	3	-11	-10	i	-1	-4	-1	-2
CCOC(=O)c1sc(N)nc1C(F)(F)F	·	-1	·	·	·	2	3	-13
CS(=O)(=O)c1nc2c(cc1C#N)CCCC2	1	·	-14	·	1	-1	0	13
COC(=O)C1=C(C)N(CCc2cc(OC)c(OC)c(OC)c2)C(=O)N[C@H]1c1cccs1	9	·	-6	i	7	·	·	·
O=C(C[n+]1cccc(C(=O)Nc2ccccc2)c1)c1ccc([N+](=O)[O-])cc1	11	11	14	i	2	-3	-5	-8
N#Cc1c(N)nc(SCc2ccncc2)c(C#N)c1-c1cccs1	1	-2	1	i	-5	-39	-18	6
Cc1ccc(-c2nc3c(Cl)cc(Cl)cc3c(=O)n2O)cc1	32	-10	13	i	17	-3	2	-13
O=C(NCc1cccnc1)C1CCCN(Cc2cnn(-c3ccccc3)c2-n2cccc2)C1 (stereo not given)	-5	-13	-2	i	-6	9	11	30
COc1ccc(NC(=O)CCCNC(=O)Cn2cnc3sc(C)c(C)c3c2=O)cc1OC	1	-10	4	i	-4	1	-1	-5

High-throughput results: PubChem, several laboratories
